# Screening data (PubChem BioAssay)
# HTT prom inh – inhibits huntingtin promoter activity; actives 0.93% (n = 48,000); AID 1508623; HEK293 HTT promoter firefly luciferase reporter (activity 0% = vehicle and -100% = no light), 24 h; Potency, µM (highest dose often 57.5 µM), for inactives: at the highest dose activity change, negative = inhibition, most hits filed as inhibitors; active = well fitted inhibition curve with a large enough effect; inconclusive = small, poorly fitted or top-dose-only effect; inactive = no such curve, though single readings can be large or run the other way; also: nearly all actives have a fitted effect of over 50% in size
#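 Quantitative HTS used concentration series of up to 57.5 uM final on HEK293 luciferase reporter cells, 24 h at 37 degrees C. Readout was Dual-Glo firefly luminescence.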
# PMP22 txn prim – PMP22 gene transcription modulation. actives 2% (n = 43,000). Potency, µM (series often up to 57.5 µM), for the others: at the highest dose activity change, negative = inhibition, usual class: inhibitors. S16 Pmp22-F2sN Schwann cells (luciferase reporters placed in the Pmp22 gene), FLuc/NLuc coincidence luminescence, 24 h; active = clear falling dose curves in both reporters; inconclusive = both reporters move, but less clearly or upward; inactive = either reporter flat; the % is the NLuc reporter signal; also: % is scaled to controls: 0 for no effect and ±100 for the full control effect; some results filed as inactive show a strong effect at the top dose
#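 Rat S16 Pmp22-F2sN cells, 500-1,000/well in phenol red-free DMEM + 10% FBS, compound-treated 24 h (37C, 5% CO2). Luminescence: FLuc read, Stop&Glo added, NLuc read.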
# Active calls of the source: *; ? = inconclusive; · = no result given; [ ] = dose if it differs, or a comment. Potency is read from the fitted curve at half-maximal effect.
# Preview (three entries):
SMILES,HTT prom inh,PMP22 txn prim
CCn1c(=O)cc(SCC(=O)NCc2ccc(OC)cc2OC)c2ccccc21,-12%,-13%
CCN1CCN(C(=O)c2ccc3c(c2)N(Cc2ccccc2F)C(=O)c2ccccc2S3=O)CC1 (stereo not drawn),-4%,-5%
CCC(=O)N1CCc2cc(CNC(=O)c3ccc(C#N)cc3)ccc21,?,-13%

# Main list, previewed entries included:
SMILES,HTT prom inh,PMP22 txn prim
CCn1c(=O)cc(SCC(=O)NCc2ccc(OC)cc2OC)c2ccccc21,-12%,-13%
CCN1CCN(C(=O)c2ccc3c(c2)N(Cc2ccccc2F)C(=O)c2ccccc2S3=O)CC1 (stereo not drawn),-4%,-5%
CCC(=O)N1CCc2cc(CNC(=O)c3ccc(C#N)cc3)ccc21,?,-13%
Cc1nn(C(C)C(=O)Nc2cccc(F)c2)c(=O)c2c1sc1ccccc12 (stereo not drawn),-21%,18%
O=C(Nc1noc2ccccc12)c1ccc(F)cc1,60%[activator],-23%
CCN(CC)S(=O)(=O)c1ccc2c(c1)N(CC(=O)Nc1cccc(C)c1C)C(=O)C1CCCN21 (stereo not drawn),-5%,16%
CCN1CCC(N(Cc2cccc(OC)c2)C(=O)Nc2cccc(C)c2C)CC1,-12%,-24%
CCOc1ccccc1N1CC(c2nc3ccccc3n2CCCCOc2ccccc2)CC1=O (stereo not drawn),-4%,?
CCN(Cc1ccccc1)S(=O)(=O)c1ccc2c(c1)CC(C)N2C(=O)C1CCC1 (stereo not drawn),?,?
COCCNc1nc(NCc2cccc(Cl)c2)c2cnn(C)c2n1,?,?
CN(C)CCCN1c2ccccc2Sc2ccc(Cl)cc21,?,·
COc1cccc(CNC(=O)C2CCN(C(=O)N3CCOc4ccc(Cl)cc43)CC2)c1OC,?,?
CCCS(=O)(=O)N1CC(=O)N(c2ccccc2C)C(C)(C(=O)NC2CCCC2)C1 (stereo not drawn),2%,-7%
COc1ccc(-c2cc3nc(-c4ccccc4)cc(C(F)(F)F)n3n2)cc1,-9%,-5%
CCn1c(=N)c(C(=O)NC2CCCCC2)cc2c(=O)n3cc(C)ccc3nc21,6%,1%
CC(C)CN(CCNC(=O)c1cn(C)c2ccc(S(=O)(=O)N3CCCCCC3)cc2c1=O)CC(C)C,-16%[11.5 µM],?
Cc1cc(C)cc(Oc2nc3c(C)cccn3c(=O)c2/C=C(\C#N)c2nc3ccccc3[nH]2)c1,-3%[11.5 µM],?
Cc1cc(C)cc(Nc2cc(C(=O)NC3CCC(C)CC3)c3ccccc3n2)c1 (stereo not drawn),5%,?
Cc1nn(-c2ccccc2)c2nc(C3CC3)cc(C(=O)Nc3ccc(F)cc3)c12,?,-25%
O=C(COc1ccccc1F)Nc1ccccc1C(=O)OCc1cc(=O)n2nc(C3CC3)sc2n1,-5%,-16%
Cc1c(NC(=O)c2sc3c([N+](=O)[O-])cccc3c2Cl)cccc1-c1nc2ccccc2o1,9%,?
Cc1noc(-c2ccc(NC(C)c3ccccc3)c([N+](=O)[O-])c2)n1 (stereo not drawn),-17%,?
Cc1ccc(C)c(N2CCN(S(=O)(=O)c3cnc(N)nc3)CC2)c1,-16%,-15%
CCC(=O)N1CCc2cc(CNS(=O)(=O)c3ccccc3F)ccc21,30%,-11%
COc1cc(OC)c(NS(=O)(=O)c2cc(-c3cnc(C4CC4)o3)ccc2C)cc1Cl,?,?
COc1ccc(OC)c(CCNC(=O)C(C)n2nc(C)c3c(C)n(-c4ccc(C)cc4)nc3c2=O)c1 (stereo not drawn),1.6µM*,?
CCOc1cc(C(=O)N2CC(=O)Nc3ccc(C)cc3C2c2ccccc2)cc(OCC)c1OCC (stereo not drawn),-5%,-12%
Cc1ccc(NS(=O)(=O)c2ccc3c(c2)NC(=O)CCS3)cc1C,?,?
CCCCSc1ncnc2c1sc1nc(N3CCOCC3)c3c(c12)CCCC3,-6%,-18%
Cc1nn(C)c2c1c(-c1ccccc1)cc(=O)n2CC(=O)NC(C)c1ccccc1 (stereo not drawn),-23%,3%
CCOC(=O)c1ccc(NC(=O)CC2Nc3cccc4cccc(c34)NC2=O)cc1 (stereo not drawn),?,?
CCOc1ccc(CN2C(=O)c3ccccc3Sc3ccc(C(=O)NCCc4ccccc4)cc32)cc1,-11%,-21%
Cc1ccc(-c2cc(C(=O)Oc3ccccc3Cl)no2)cc1C,4%,-19%
CCOc1ccc(CNC(=O)c2ccc(NC(=O)N3CCCCc4ccccc43)cc2)cc1OC,-6%,?
CN1CCN(N)CC1,0%,·
O=C(NCc1cccs1)c1ccc2c(c1)N(Cc1cccc(F)c1)C(=O)c1ccccc1S2,1%,-7%
CCC(=O)N1c2ccc(S(=O)(=O)N3CCN(c4ccccc4Cl)CC3)cc2CC1C (stereo not drawn),?,-19%
Cc1cccc(N2CCN(c3nc4ccccc4c(=O)n3-c3ccc(Cl)cc3)CC2)c1C,-27%,?
CCCCNS(=O)(=O)c1ccc2nc(NC(=O)c3cccnc3)sc2c1,-23%,36%
O=C(C1CCN(c2ncnc3c2nc2n3CCCCC2)CC1)N1CCN(c2ccc(Cl)cc2)CC1,-10%,-24%
Cn1cc(S(=O)(=O)N2CCOCC2)cc1C(=O)Nc1cccc(C#N)c1,-2%,-19%
COc1ccc(Nc2ncc3c(n2)CCN(Cc2cccc(F)c2F)C3)c(OC)c1,-2%,-1%
CC(=O)c1ccc(NC(=O)c2ccc(-n3cnnc3)cc2)cc1,-5%[11.5 µM],8%
CC(=O)c1cccc(NC(=O)c2cc(-c3ccc(Cl)s3)nc3ccccc23)c1,-14%,?
Cc1ccc(Cl)cc1NC(=O)Cn1c(=O)n(Cc2ccc(C(=O)NCc3ccc4c(c3)OCO4)cc2)c(=O)c2ccccc21,-12%,-22%
CN(c1ccc(F)cc1)S(=O)(=O)N1CCCC(C(=O)NCCc2ccccc2)C1 (stereo not drawn),-22%,7%
COc1cccc(-c2cn3c(n2)sc2cc(C(=O)NCCCc4ccccc4)ccc23)c1,-20%,-10%
COc1ccc(CNCCC(c2ccc(C)cc2)c2ccco2)cc1 (stereo not drawn),-28%,?
CSc1ccc(CCNC(=O)C2=C(C)C(=O)OC23CCCCC3)cc1,-17%,-9%
COc1cccc2c1cc1c(=O)n(CC(=O)NC3CCCCC3)nc(C)n12,-2%,0%

# Records listed so far marked active in HTT prom inh.
mol | HTT prom inh
COc1ccc(OC)c(CCNC(=O)C(C)n2nc(C)c3c(C)n(-c4ccc(C)cc4)nc3c2=O)c1 (stereo not drawn) | 1.6µM*

# New compounds follow
SMILES,HTT prom inh,PMP22 txn prim
O=C(NCc1ccc(Cl)cc1)c1ccc(CNS(=O)(=O)c2ccc(F)cc2)cc1,-3%,?
Cn1ccc2c(OCC(=O)Nc3cc(C(F)(F)F)ccc3Cl)cccc2c1=O,0%,?
CCc1ccc(NC(=O)c2cc(S(=O)(=O)N3CCCCCC3)ccc2F)cc1,?,?
COc1cccc(C(=O)Nc2ccc(S(=O)(=O)N(Cc3ccccc3)c3ccccc3)cc2)c1,?,?
Cc1c(C(=O)Nc2cccc(C(F)(F)F)c2)oc2ccc3c(c12)C(=O)CC(C)(C)O3,21%,?
Fc1cccc(Cl)c1CNc1n[nH]c(-c2ccco2)n1,47%[activator],14%
CCOC(=O)C1CCCN(C(=O)c2ccc(NC(=O)c3nsc4ccccc34)cc2)C1 (stereo not drawn),15%,-1%
CCS(=O)(=O)c1ncc(N(Cc2ccccc2)Cc2ccco2)c(C(=O)Nc2ccccc2C)n1,-24%,14%
COCCNC(=O)C1CCN(S(=O)(=O)c2ccc3c(c2)CCCN3C(C)=O)CC1,-5%,5%
Cn1nnnc1SCCCNCc1cccc(OCc2ccc(F)cc2)c1,-26%,?
CCc1ccc(NC(=O)C(C)n2nnc3sc(-c4ccccc4)cc3c2=O)cc1 (stereo not drawn),15%,-24%
Cc1cccc(OCc2nnc(SCC(=O)Nc3ccc(C)cc3C)o2)c1,-9%,-10%
Cc1nc2c(-c3ccc(F)cc3)c(C)nn2c(C)c1CCC(=O)NCc1ccc(F)cc1,-13%,-9%
CCCCOC(=O)c1ccc(NC(=O)Cn2nnc3sc4c(c3c2=O)CCCC4)cc1,?,-8%
Fc1ccc(Cc2cn3cc(-c4ccc(F)cc4)nc3s2)cc1,-22%,-15%
CC(=O)N1CCc2cc(Br)cc(S(=O)(=O)NCCc3cccc(C)c3)c21,-7%,-17%
COc1ccccc1OC(C)C(=O)N1CCN(CCc2ccccn2)CC1 (stereo not drawn),-6%,9%
O=C(O)CCCc1ccccc1,10%,·
CC(CC(=O)Nc1ccc(F)cc1)S(=O)(=O)c1cc2c3c(c1)CCN3C(=O)CC2 (stereo not drawn),-15%,-21%
COc1ccc(Cl)cc1C(=O)NCc1nnnn1-c1ccccc1,6%,6%
CCOc1ccc(NC(=O)c2cnn(-c3ccccc3)c2-n2cccc2)cc1,?,-23%
CC(=O)N1c2ccc(S(=O)(=O)N3CCCCCC3)cc2CC1C(=O)NCc1ccccc1C (stereo not drawn),-20%,?
Cc1ccc(/C=C(\C#N)C(=O)Nc2ccc(Br)cc2)o1,88%[activator],-11%
CC(=O)OCC(=O)[C@@]1(O)[C@H](C)C[C@H]2[C@@H]3CCC4=CC(=O)C=C[C@]4(C)[C@@]3(F)[C@@H](O)C[C@@]21C,-4%,·
CN(C)c1ccc(NC(=O)CN2C(=O)c3ccccc3Sc3ccc(C(=O)N4CCCC4)cc32)cc1,-23%,?
COc1ccc(NC(=O)C2CCCN(S(=O)(=O)c3ccc(Cl)cc3)C2)cc1 (stereo not drawn),-6%,-4%
CC1=C(C(=O)Nc2ccc(Cl)cc2)C(CC(C)C)n2nc(SCc3ccccc3C)nc2N1 (stereo not drawn),-13%,-7%
Cc1ccc(-c2nc3scc(CCNC(=O)Cc4ccc(Cl)cc4)n3n2)cc1,?,5%
O=C(c1ccc2c(c1)N(Cc1c(F)cccc1Cl)C(=O)c1ccccc1S2)N1CCOCC1,-21%,0%
CCC(C)n1c(=N)c(S(=O)(=O)c2ccccc2)cc2c(=O)n3ccccc3nc21 (stereo not drawn),-11%,?
O=C(Cn1ncn2cccc2c1=O)NCc1cccc(Br)c1,60%[activator],-8%
CCc1ccc(NC(=O)Cn2c(=O)n(-c3ccc(Cl)c(Cl)c3)c(=O)c3c(C)c(C)sc32)cc1,-7%,?
O=S(=O)(NCc1ccc(F)cc1)c1ccc2[nH]c3c(c2c1)CCCCC3,?,-14%
Cc1c(CN(C)C(=O)c2cc(-c3ccccc3)nc3ccc(Br)cc23)cnn1C,?,?
COc1ccc(-c2nc3ccccc3n2Cc2ccc(C(C)C)cc2)cc1,?,-18%
Cc1ccc(C(=O)NCC(=O)OCc2cc(=O)n3nc(C4CC4)sc3n2)cc1,-10%,?
COc1cccc(N2CCN(C(=O)C(CCSC)NS(=O)(=O)c3ccc4c(c3)oc(=O)n4C)CC2)c1 (stereo not drawn),0%,1%
COc1ccc(NC(=O)c2cc3c(s2)-c2c(C)cccc2OC3)cc1Cl,?,16µM*
O=C(CCCCCn1c(=O)[nH]c2ccccc2c1=O)NCc1ccc(Cl)cc1,-3%,6%
Cc1cccc(NC(=O)CSc2nc3ccccc3c3nc(CCc4c(C)n[nH]c4C)nn23)c1,0%,?
Cn1cc(CCCC(=O)NCc2cccc(Br)c2)c2ccccc21,-4%,6%
CCCCn1cc2c(c1-c1ccccc1Br)c(=O)n(C)c(=O)n2C,-19%,15µM*
CCC(C(=O)N1CCN(c2ccccc2)CC1)n1nc(C)c2sc3ccccc3c2c1=O (stereo not drawn),-6%,-4%
COc1ccc(CNc2oc(/C=C/c3cc(OC)c(OC)c(OC)c3)nc2C#N)cc1,-15%,-5%
COc1ccc(N2CC(NC(=O)Cc3cccs3)CC2=O)cc1 (stereo not drawn),-1%,-30%
Cc1cc(OCC(=O)N(Cc2ccc(N(C)C)cc2)Cc2ccco2)cc(C)c1Cl,?,?
Cc1ccccc1OC(=O)CSc1nnc(-c2ccc3c(c2)OCO3)o1,-23%,3%
Cc1c(C)n(C)c2ccc(C(=O)NCCCN3CCCCC3C)cc12 (stereo not drawn),-4%,-27%
COc1cccc(C(=O)N(Cc2cccc(Cl)c2)Cc2ccco2)c1,-30%,-23%
COc1ccccc1NC(=O)c1sc2nc(C)c(C(=O)Nc3ccc(C)cc3C)c(-c3cccs3)c2c1N,-20%,-1%
Cc1ccc(CC(=O)NCc2nc(-c3ccccc3)no2)cc1,1%,0%
CC1=C(C(N)=O)C(c2cccc(O)c2)n2ncnc2N1 (stereo not drawn),-5%,-13%
O=C(CNC(=O)c1ccc(F)cc1)OCc1cc(=O)n2ccsc2n1,-4%,?

# 4 records picked at random from those above, as already listed:
SMILES,HTT prom inh,PMP22 txn prim
CCCCn1cc2c(c1-c1ccccc1Br)c(=O)n(C)c(=O)n2C,-19%,15µM*
COc1ccc(CNc2oc(/C=C/c3cc(OC)c(OC)c(OC)c3)nc2C#N)cc1,-15%,-5%
Cc1ccccc1OC(=O)CSc1nnc(-c2ccc3c(c2)OCO3)o1,-23%,3%
COc1ccccc1NC(=O)c1sc2nc(C)c(C(=O)Nc3ccc(C)cc3C)c(-c3cccs3)c2c1N,-20%,-1%
